AmpC nodet inh = AmpC beta-lactamase inhibition, detergent-free assay | Potency, µM (highest dose often 28.7 µM), without a hit: at the highest dose activity change, negative = inhibition | P00811 | AID 585 | hit rate 1.8% among 71,000 | AmpC nitrocefin hydrolysis, absorbance 480 nm, no detergent; potencies from a single point are estimates; active = falling curve, for most hits resting on a single point; inconclusive = weak or doubtful change; inactive = flat or rising curve; further: % of control where 0% means no effect; about half of the hits show no inhibition at the top dose; a quarter of the inactives give rising signals
Target sequence (P00811 whole entry, looked up): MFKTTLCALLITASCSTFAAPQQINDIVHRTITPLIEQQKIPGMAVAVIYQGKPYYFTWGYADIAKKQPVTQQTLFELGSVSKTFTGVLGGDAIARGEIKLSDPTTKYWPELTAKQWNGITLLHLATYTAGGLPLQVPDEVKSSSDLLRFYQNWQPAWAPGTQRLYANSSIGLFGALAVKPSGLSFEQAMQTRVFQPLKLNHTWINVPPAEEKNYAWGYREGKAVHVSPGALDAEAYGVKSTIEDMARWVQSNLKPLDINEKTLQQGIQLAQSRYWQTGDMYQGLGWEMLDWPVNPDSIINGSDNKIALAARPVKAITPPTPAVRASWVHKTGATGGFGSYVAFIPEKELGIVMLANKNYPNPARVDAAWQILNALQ
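AmpC in 20 mM phosphate buffer pH 7.0 was preincubated 15 min at room temperature with compounds. Nitrocefin (800 uM stock) was then added and hydrolysis followed at 480 nm every 20 s for 4 min.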
Active calls of the source: *; ? = inconclusive; & = joins results of further samples; [ ] = dose if it differs, or a comment. Potency means the concentration at half of the fitted maximal effect. Not all compounds are listed; the hit share may differ from the screen's.

SMILES	AmpC nodet inh
Cn1nnc(NC(=O)c2cccc(F)c2)n1	-2%
CN(c1ccc(C(=O)N2CCc3ccccc3C2)cc1)S(C)(=O)=O	50%
Cc1cccc(NC(=O)COc2ccccc2)c1	-8%
Cc1csc2nnc(N)n12	-2%
CC(C)(C)Oc1ncc(Br)c(OC(C)(C)C)n1	4%
CC(C)Cc1nc2oc3c(N4CCN(C)CC4)ncnc3c2c2c1CCCC2	10%
COc1ccc(-c2cc(NCc3ccccn3)n3ncnc3n2)cc1	40%
CC(=O)NCCn1c(SCC(=O)OCc2ccccc2)nc2ccccc2c1=O	112%
COC(=O)c1c(C)oc(C)c(C(=O)OC)c1=O	3%
CCCc1nnc(NC(=O)CC(=O)OCC)s1	32%
CC1CC(N(C(=O)C2CC2)c2ccccc2)c2ccccc2N1C(=O)C1CC1 (centres undefined)	71%
Cc1cc2oc(=O)c3c(c2cc1OC(=O)c1ccco1)CCCC3	0%
Cn1c(=O)c2[nH]c(CCCCC(=O)O)nc2n(C)c1=O	-2%[5.75 µM]
CCNC(=O)CCCOc1ccc(Cl)cc1Cl	32%
O=C(c1ccco1)N1CCN(C(c2ccccc2F)c2nnnn2Cc2cccs2)CC1 (centres undefined)	52%
Cc1cc(C(=O)CSc2nc3ccccc3c(=O)[nH]2)c(C)n1C	18%
CCn1c(SCC(=O)Nc2cccc(NC(C)=O)c2)nnc1C(C)C	7%
CCC(C)(C(=O)NC1CCCC1)N(C(=O)c1cnccn1)c1c(C)n(C)n(-c2ccccc2)c1=O (centres undefined)	13%
O=c1/c(=C/c2cccc3ccccc23)sc2ncnn12	-3%
CC(=O)N1CC[N+](C)(C)CC1	12%
CN(C(=O)C(Cl)Cl)c1ccc(OC(=O)c2ccco2)cc1	3%[12.8 µM]
O=C(c1cccs1)N(Cc1nc2sc3c(c2c(=O)[nH]1)CCCC3)C1CCCC1	3%
CC(NC(=O)Cn1ccsc1=N)C12CC3CC(CC(C3)C1)C2 (centres undefined)	-16%
COc1cccc(CNC(=O)CCNS(=O)(=O)c2cccs2)c1	10%
COc1ccc(CNc2ccc(-c3ccc(OC)cc3)nn2)cc1	7%

Pulled by structure from the entries so far:
SMILES	AmpC nodet inh
Cc1cccc(NC(=O)COc2ccccc2)c1	-8%
Cc1cc(C(=O)CSc2nc3ccccc3c(=O)[nH]2)c(C)n1C	18%
Cn1nnc(NC(=O)c2cccc(F)c2)n1	-2%
Cc1csc2nnc(N)n12	-2%
CC(C)Cc1nc2oc3c(N4CCN(C)CC4)ncnc3c2c2c1CCCC2	10%
CC(C)(C)Oc1ncc(Br)c(OC(C)(C)C)n1	4%

Grouped by structure: the compounds so far with four or more nitrogen atoms.
SMILES	AmpC nodet inh
Cn1nnc(NC(=O)c2cccc(F)c2)n1	-2%
Cc1csc2nnc(N)n12	-2%
CC(C)Cc1nc2oc3c(N4CCN(C)CC4)ncnc3c2c2c1CCCC2	10%
COc1ccc(-c2cc(NCc3ccccn3)n3ncnc3n2)cc1	40%
Cn1c(=O)c2[nH]c(CCCCC(=O)O)nc2n(C)c1=O	-2%[5.75 µM]
O=C(c1ccco1)N1CCN(C(c2ccccc2F)c2nnnn2Cc2cccs2)CC1 (centres undefined)	52%
CCn1c(SCC(=O)Nc2cccc(NC(C)=O)c2)nnc1C(C)C	7%
CCC(C)(C(=O)NC1CCCC1)N(C(=O)c1cnccn1)c1c(C)n(C)n(-c2ccccc2)c1=O (centres undefined)	13%

The listing continues:
SMILES	AmpC nodet inh
CCn1c(SCC(=O)Nc2cc(F)ccc2C)nnc1-c1ccccc1O	2%
COc1cccc(NC(=O)CSc2nc3n[nH]c(C)c3c(=N)n2-c2cccc(OC)c2)c1	56%
COc1ccc2c(c1)N(C(=O)CSc1n[nH]c(C)n1)C(C)(C)C=C2C	16%
O=C(Oc1ccccc1)N1CCC2(CC1)CCN(c1ccncc1)CC2	22%
CCc1cccc(NC(=O)Nc2cccs2)c1	?
COc1ccccc1NC(=O)C(C)NS(=O)(=O)c1ccccc1 (centres undefined)	2%
O=C(c1cccnc1)N1CCC(c2nc3ccccc3[nH]2)CC1	7%
COc1ccc(N2CSC3=C(C#N)C(c4ccc(OC)c(OC)c4)CC(=O)N3C2)c(OC)c1 (centres undefined)	48%
C=CCNC(=O)C1CC(c2cccc(OC)c2)=NO1 (centres undefined)	-1%
COc1ccc2sc(C)nc2c1NC(C)=O	5%
O=C(Nc1ccccc1)N(C1=NCCCCS1)c1ccccc1	-18%
CC(=O)/C(C[N+]1(C)CCCCC1)=N\O	-9%
COCCN1Cc2cccc(C(=O)Nc3c(C)cc(C)cc3C)c2C1=O	33%
CN(C)S(=O)(=O)c1ccc2c(c1)C(CC(=O)O)NC2=O (centres undefined)	-2%
C[C@H](CO)NC(=O)[C@@H]1C[C@H]1[C@@H](NP(=O)(c1ccccc1)c1ccccc1)c1ccccc1	112%
Cc1noc(C)c1S(=O)(=O)N1CCCC(C(=O)NCCC2=CCCCC2)C1 (centres undefined)	22%
O=C(c1cn(-c2ccccc2)nc1-c1ccccc1)N1CCOCC1	48%
COc1ccc(C(=O)CSc2nnc(-c3ccc(C)cc3)o2)cc1	32%
Cc1cc(C(=O)CSc2nncs2)c(C)n1-c1c(C)n(C)n(-c2ccccc2)c1=O	20%
CCn1cc(C(=O)NCC2CCCO2)c(=O)c2cc(S(=O)(=O)N(C)C)ccc21 (centres undefined)	4µM*[single pt active]
Cn1cccc1Cc1nnc(SCC(=O)NCC2CCCO2)n1CCc1ccccc1 (centres undefined)	94%
COc1ccc(NS(=O)(=O)c2cc(C)ccc2C)cc1	-9%
Cc1ccc2[nH]c(=O)c(CN(CCCN3CCOCC3)C(=O)Nc3cccc(Cl)c3)cc2c1	141%
COc1ccccc1NC(=O)CN(C)S(=O)(=O)c1ccc(F)cc1	9%
Cc1cccn2c(=O)c3cc(C(=O)NCCCN4CCOCC4)n(C)c3nc12	10%

(cont.)
SMILES	AmpC nodet inh
COc1cccc2cc3c(=O)n(-c4ccccc4)nc-3oc12	3.2µM*[single pt active]
Cc1ccccc1CSCCNC(=O)CN(c1ccc2c(c1)OCO2)S(C)(=O)=O	36%
CCCC(O)(CCN(C)C)c1ccc(OC)cc1 (centres undefined)	-1%
O=C(COc1ccccc1)N1CCN(CC2CC3C=CC2C3)CC1 (centres undefined)	41%
O=C(O)COCc1nc2ccccc2[nH]1	-4%
O[C@@H](c1cc([C@@]23C[C@H]4CC[C@@H]2C[C@H](C4)C3)nc2c(Cl)cc(Cl)cc12)[C@@H]1CCCCN1	12%[5.75 µM]
O=c1c(CCc2ccccc2)nc2cnc(N3CCNCC3)nc2n1Cc1cccs1	23%
Cc1nc2nc(-c3ccccc3)[nH]n2c(=O)c1Cc1ccccc1	-11%
COc1ccc(C2(C(=O)NC(C)C)CCCC2)cc1OC	-4%
O=c1c2ccccc2c(C=NCCO)c(O)n1-c1ccccc1	-5%
COc1ccccc1CN1CC(C(=O)NCC2CCCO2)CC1=O (centres undefined)	-9%
O=C1NC(=O)C(c2ccccc2)(c2ccccc2)N1	-16%&-11%
Cc1cc(C)cc(N2C(=O)C3C4C=CC(C4)C3C2=O)c1 (centres undefined)	4%
O=C(c1cc2nc(-c3ccco3)cc(C(F)(F)F)n2n1)N1CCN(c2ccccc2)CC1	104%
Cc1ccc(S(=O)(=O)N2CCC(C(=O)Nc3nnc(-c4ccco4)s3)CC2)cc1	1%
CCN(CC)C(=O)CSc1nnc(-c2cccc(OC)c2)o1	25%
CC(=O)Nc1nonc1NC(=O)CSc1ccccn1	2%
COC1=CC(=O)O[C@@H](/C=C/c2ccc3c(c2)OCO3)C1	9%
CC(c1ccccc1)n1cc(C(=O)NCc2cccnc2)nn1 (centres undefined)	-1%
COc1ccc(-c2nc3ncccn3c2Nc2ccc3c(c2)OCCO3)cc1	36%
COC(=O)c1ccc(C(NC(=O)OCc2ccccc2)/C(=C/[C@@H](C)C(=O)NCc2ccc(OC)c(OC)c2)c2cccnc2)cc1 (some centres undefined)	124%
Cc1onc(-c2ccccc2Cl)c1C(=O)Nc1cccc2cccnc12	-4%
CCC(C)(C(=O)NC1CCCC1)N(Cc1ccco1)C(=O)c1ccccn1 (centres undefined)	-4%
O=C(COC(=O)C1CCN(S(=O)(=O)c2cccs2)CC1)c1cc2ccccc2o1	10µM*
O=C(c1ccccc1Oc1nnnn1-c1ccccc1)N1CCOCC1	1%

(next part)
SMILES	AmpC nodet inh
CC1Cc2nc(SCC(=O)Nc3ccc4c(c3)OCO4)n(CCc3ccccc3)c(=O)c2S1 (centres undefined)	3%
Cc1c(OCc2nn[nH]n2)ccc2c3c(c(=O)oc12)CCCC3	-16%
O=C(COC(=O)CCc1c[nH]c(=O)[nH]1)Nc1cccc(Cl)c1	-6%
CCCCc1c(O)nc(SCC(=O)N2CCOCC2)n(-c2ccccc2C)c1=O	-4%
Cc1cc(C(C)(C)C)c(O)c(C)c1CC1=NCCN1	21%
CCN1C(=O)C2(/C(=C(\O)c3ccc4c(c3)OCCO4)C(=O)C(=O)N2CCCOC)c2ccccc21 (centres undefined)	-4%
CN(C(=O)C1CCCO1)c1nnc(-c2ccccn2)s1 (centres undefined)	12%
COc1ccc(CN2CC(C(=O)NCCCN3CCN(C)CC3)CC2=O)cc1 (centres undefined)	-14%
COC(=O)N1CCC2(CC1)CCN(C(c1ccccc1)c1ccccc1)CC2	30%
CCOC(=O)c1cc2c(=O)n3ccccc3nc2n(CCCOC)c1=NC(=O)C(C)(C)C	114%
O=C(Nc1ccc(C2CCCCC2)cc1)C1CCCN(c2ncccn2)C1 (centres undefined)	-11%
O=C(Nc1ccc2oc(-c3ccccc3Cl)nc2c1)c1ncn[nH]1	17%
O=C(c1ccccc1)c1cccn1CC(=O)N1CCN(c2ccc(F)cc2)CC1	65%
Cc1cc(NC(=O)Cn2nnc3sc4c(c3c2=O)CCCC4)no1	-12%
COc1cc(NC(=O)c2ccc(C)cc2)c(OC)cc1NC(=O)CN1CCOCC1	125%
CCOC(=O)N1CCN(C(=O)Cn2cc3c(n2)CCCC3)CC1	-8%
COC(=O)c1cc(C)sc1NC(=O)CCCC(=O)O	-1%
CCC(OC(=O)CCc1nc2ccccc2[nH]c1=O)C(=O)c1ccccc1 (centres undefined)	0%
CC(C)Nc1oc(Cc2cccc3ccccc23)nc1C#N	12%
COc1ccc(NC(=O)c2cnc(C)cn2)cc1-n1cnnn1	4%
CC(=O)Nc1ccc(NC(=O)Cn2cc3c(n2)CCC(C)C3)cc1 (centres undefined)	6%
CC(=O)N1CCc2cc(S(=O)(=O)NC(C(=O)Nc3ccc4c(c3)OCCO4)C(C)C)ccc21 (centres undefined)	-1%
Cc1cccc(CCNC(=O)C2CCC(CNc3c(N4CCCC4)c(=O)c3=O)CC2)c1 (centres undefined)	11%
COCC(=O)N1CCC2(CCCN(Cc3ccccc3)C2)CC1	7%
CCN1C[C@@]2(COC)[C@H]3[C@@H](OC)[C@H]4C1[C@@]3([C@H](OC)C[C@@H]2O)[C@H]1C[C@@]2(O)[C@@H](OC(=O)c3ccccc3)[C@@H]1[C@@]4(OC(C)=O)[C@H](O)[C@@H]2OC	-11%[12.8 µM]

(further entries)
SMILES	AmpC nodet inh
Cc1oc(-c2ccc(F)cc2)cc1-c1nn2c(-c3ccoc3C)nnc2s1	88%
O=C1c2ccccc2S(=O)(=O)N1CCOc1ccc(F)cc1	-8%
N#Cc1c(NC(=O)C(F)(F)F)sc2c3c(=O)c4ccccc4c(=O)c=3oc3ccccc3c12	7%[5.75 µM]
O=C(COc1ccc(Cl)cc1)Nc1nc(-c2cccs2)cs1	?
Cc1nc(NC(=O)CCCC(=O)Nc2nc(C)c(C)s2)sc1C	4%
Cc1cccc(-n2nnc(C(=O)NCc3ccccn3)c2N)c1	-1%
COc1ccc2cc(C(c3nnnn3C3CCCCC3)N3CCCCCC3)c3nnnn3c2c1 (centres undefined)	29%
CN(C)CCNC(=O)Cc1c(C(=O)O)n(C)c2ccccc12	1%
COc1ccccc1NC(=O)c1nnn(CC(=O)Nc2cccc(SC)c2)c1N	?
Cc1cc(S(=O)(=O)N2CCN(c3ncccn3)CC2)ccc1-n1cnnn1	31%
COCCn1c(=O)c(C)nc2cnc(Oc3ccccc3)nc21	41%
COc1ccccc1CNC(=O)c1ccc(NS(C)(=O)=O)cc1	12%
COc1ccccc1N1CCN(C(=O)c2ccc(CS(=O)(=O)c3ccccc3OC)o2)CC1	133%
Cc1ccc(CC2C(=O)N(C)C(=O)N(C)C2=O)s1	13%
COc1ccc2c(=O)c(N3C(=O)c4ccccc4C3=O)coc2c1	-2%
O=C(O)c1cc(N=Cc2ccccc2O)cc(C(=O)O)c1	-3%[5.75 µM]
COC(=O)COc1nsnc1N1CCOCC1	-14%
c1csc(-c2cn3c(n2)SCC3)c1	-8%
O=C(Nc1nnc(SCc2ccc(F)cc2)s1)c1ccco1	?
COCCCNC(=O)c1cc(OC)c(OC)c(OC)c1	-9%
CCCCNN	1%[5.75 µM]
COc1ccccc1N	3%
O=C(Cn1nnc(-c2ccncc2)n1)N(C1CCCCC1)C1CCCCC1	71%
O=C1C(Cl)=C(N2CCOCC2)C(=O)N1c1ccccc1Cl	1%
Cc1nc(N2CCOCC2)c2nc(-c3ccccc3)n(CCCN3CCOCC3)c2n1	113%

Next entries
SMILES	AmpC nodet inh
CCOc1ccc(N(CC(=O)N2CCN(c3ccccc3)CC2)S(=O)(=O)c2c(C)noc2C)cc1	55%
CCN(CC)CCNc1ccc(CO)c2sc3ccccc3c(=O)c12	18%[12.8 µM]
COCCn1c(COc2ccc(C)cc2)nc2ccccc21	0%
Cc1ccc(-c2nnc(SCC(=O)O)n2N)cc1	-8%
CCOC(=O)Cn1cc(-c2ccccc2)nn1	-8%
CCCc1nnc(NC(=O)CCC(=O)N2CCCCC2CC)s1 (centres undefined)	22%
